# Menin-MLL FL inh – menin-MLL binding inhibition, fluorescein peptide. Fluorescence polarization, fluorescein-MLL peptide displacement from menin. FP activity change, % at 61.4 µM. 290,000 tested, under 10 active; inconclusive = falling polarisation curve, or a change in total fluorescence; inactive = total fluorescence flat and polarisation flat or rising; no compound was filed as active; the % refers to the polarisation; negative = inhibition;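 note: % of control where 0% means no effect; inhibitors lower the polarisation; unlabelled MLL peptide was the positive control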
# D2 ag – activates the human D2 dopamine receptor; P14416; DiscoveRx PathHunter D2 beta-arrestin, luminescence, 90 min; 100% = 57 uM dopamine signal; activation, % (no concentration beside the values); 360,000 compounds, 0.084% hits; AID 624465; in the data active = activation above about 40%; inconclusive = about 15% to 40%; inactive = below about 15%; note: compound concentration not given in the record; the text of the record calls up to 30% inactive
# Target sequence (P14416 whole entry, looked up): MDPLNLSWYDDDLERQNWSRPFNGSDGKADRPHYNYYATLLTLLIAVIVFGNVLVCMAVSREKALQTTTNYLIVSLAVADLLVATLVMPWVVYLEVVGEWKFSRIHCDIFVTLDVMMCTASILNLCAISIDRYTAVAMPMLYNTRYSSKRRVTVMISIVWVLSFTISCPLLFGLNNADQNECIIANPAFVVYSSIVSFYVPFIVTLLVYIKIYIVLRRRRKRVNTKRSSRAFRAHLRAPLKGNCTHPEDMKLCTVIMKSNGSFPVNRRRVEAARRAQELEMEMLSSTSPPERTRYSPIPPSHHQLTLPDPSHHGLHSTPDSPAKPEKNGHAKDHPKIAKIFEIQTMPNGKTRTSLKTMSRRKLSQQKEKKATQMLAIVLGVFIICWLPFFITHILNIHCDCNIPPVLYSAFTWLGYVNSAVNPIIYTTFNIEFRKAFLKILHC
#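 Agonist mode: compounds alone added to overnight-plated D2 PathHunter cells for 90 min at 37 C, with 57 uM final dopamine (EC100) defining full response. Beta-arrestin recruitment detected by chemiluminescent reagent, read after 1 h at ambient temperature.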
# ClpP mod – qHTS Assay for Activators of ClpP | ATP-dependent Clp protease proteolytic subunit (Bacillus subtilis (strain 168)), P80244 | purified B. subtilis ClpP, FRET peptide cleavage, 20 min | Potency, µM (titrated, usually from 57.5 µM), inactives show top-dose activity change, negative = active | 340,000 compounds, 1.9% hits; active = well fitted falling curve with a large enough effect; inconclusive = small, poorly fitted or top-dose-only effect; inactive = no such curve, though single readings can be large or run the other way; note: potency is the fitted concentration of half-maximal effect; the source files actives as falling curves though it sought activators and does not explain the sign; nearly all actives have a fitted effect of over 65% in size; many hits overshoot -100%
# Target sequence (P80244 whole entry, looked up): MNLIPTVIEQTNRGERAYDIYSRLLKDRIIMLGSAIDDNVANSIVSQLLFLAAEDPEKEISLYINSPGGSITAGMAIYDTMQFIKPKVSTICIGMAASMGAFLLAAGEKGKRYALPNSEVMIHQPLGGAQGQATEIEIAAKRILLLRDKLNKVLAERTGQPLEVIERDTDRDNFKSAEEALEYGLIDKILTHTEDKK
#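 Purified B. subtilis ClpP, 10 microg/mL final in Tris/HCl pH8 with KCl, BSA, glycerol and Tween-20, cleaved an Abz/nitrotyrosine-quenched decapeptide. Fluorescence (ex 320, em 430) was read at 0 and 20 min at room temperature. Delta was normalized to 5.8 microM ADEP and DMSO/no-enzyme controls.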
# PINK1 modulator – modulators of PINK1 expression; 410,000 compounds, 0.2% hits; PINK1 immunofluorescence, high-content cytometry, 24 h; Potency, µM (top dose mostly 76.6 µM), for inactives: at the top dose activation (PINK1 increase), actives largely listed as activators; active = well fitted activation curve with a large enough effect; inconclusive = small, poorly fitted or top-dose-only effect; inactive = flat fitted curve, though single readings scatter; cell line not stated here;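 note: potency is the fitted concentration of half-maximal effect; % of control where 0% means no effect; nearly all actives have a fitted effect of over 65% in size; a mitochondrial uncoupler was the plate control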
#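 Decision-based qHTS: stable cells, 24 h exposure to five compound concentrations, CCCP as control. Fixed cells stained for PINK1 plus nuclear, mitochondrial and cell markers, cytometer read.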
# Sfp inh – inhibitors of Bacillus subtilis Sfp phosphopantetheinyl transferase. Q9F4F7. Potency, µM, inactives show max response, negative = inhibition, most hits filed as inhibitors. Biochemical Sfp PPTase activity, qHTS. 310,000 compounds, 3.5% hits; active = well fitted inhibition curve with a large enough effect; inconclusive = small, poorly fitted or top-dose-only effect, or another doubt; inactive = no such curve, though single readings can be large or run the other way;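 note: the enzyme is Sfp with the accession as filed and its product quenches rhodamine fluorescence; potency is the fitted concentration of half-maximal effect; 0% = enzyme reaction without inhibitor and -100% = no enzyme wells; top concentration of the series not given in the record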
#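 Compounds were incubated with enzyme (final 15 nM) for 15 min at room temperature before substrate addition started the reaction. Fluorescence at 525 nm excitation, 598 nm emission was recorded immediately and after 30 minutes.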
# gsp agonist – agonists of gsp mutant (McCune-Albright syndrome) | gsp mutant cells, cAMP HTRF, 30 min; control for the full effect not named in the record | Potency, µM (doses to about 76.9 µM), for inactives: top-dose activation (cAMP increase), hits mostly activators | 340,000 compounds, 0.13% hits | AID 624287; active = well fitted activation curve with a large enough effect; inconclusive = small, poorly fitted or top-dose-only effect, or another doubt; inactive = no such curve, though single readings can be large or run the other way; cell line not stated here;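 note: phosphodiesterase inhibitor Ro 20-1724 added with compounds to block cAMP breakdown; potency is the fitted concentration of half-maximal effect; nearly all actives have a fitted effect of over 60% in size; about a fifth of the inactives were tested at one dose only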
#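 Cells in DMEM/10% FBS with G418 were pretreated with compounds in DMSO plus […] (300 uM stock) for 30 min at 37C. cAMP was measured by HTRF (cAMP-d2 plus anti-cAMP antibody-K) after 30 min at room temperature.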
# gsp antag – antagonists of gsp mutant (McCune-Albright syndrome) | gsp-mutant cells, cAMP HTRF, 30 min; control for the full effect not named in the record | Potency, µM (doses to about 76.9 µM), for the others: at the highest dose activity change, negative = inhibition, most hits filed as inhibitors | 340,000 compounds, 0.4% hits | AID 624288; active = falling curve of any shape with a large fitted effect; inconclusive = falling curve, mostly with a smaller effect; inactive = flat or rising curve; cell line not stated here;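 note: intracellular cAMP measured with PDE inhibitor Ro 20-1724 present during compound exposure; potency is the fitted concentration of half-maximal effect; % is set by controls: 0 for no effect and ±100 for the full control effect; nearly all actives have a fitted effect of over 65% in size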
#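 Cells, 2000/well, grown 16–24 h in DMEM 10% FBS with 0.5 mg/ml G418, then compounds plus […] (300 uM addition stock), 30 min at 37C. cAMP read by HTRF (cAMP-d2 and anti-cAMP antibody-K in lysis buffer) after 30 min RT.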
# The depositor's hits bear a star; ? = inconclusive; . = not tested or not shown; & = joins results of further samples; [ ] = another dose, or the depositor's remark.
SMILES,Menin-MLL FL inh,D2 ag,ClpP mod,PINK1 modulator,Sfp inh,gsp agonist,gsp antag
COc1cccc(C(=O)Nc2nc(SCc3ccc(Cl)cc3)n[nH]2)c1,2.3,-4.4,.,7.8%,-16%,-18%[15.4 µM],18%
O=C1CC(C(=O)NC2CCCCC2)C2(CCCCC2)O1 (centres undefined),0.7,6.6,1.1%,-0.1%,10%,22%,18%
O=C(O)c1ccccn1,2.3,1.0,-0.2%,-0.3%,25µM*,.,1%
O=C(NCc1cccnc1)/C(=C/c1ccc(-c2ccc(Cl)cc2)o1)S(=O)(=O)c1ccccc1,10,-3.8,-3.6%,-7.3%[38.3 µM],-12%,2%,10%
NC(=O)c1ccc(CSc2nc3ccccc3s2)cc1,.,-2.9,-4.6%,0.5%,8%,-36%[inhibitor],-2%
Cc1cc(=O)oc2cc(NC(=O)c3cccc(S(C)(=O)=O)c3)ccc12,0.0,0.0,.,-1.2%,21%,-10%[15.4 µM],3%
O=C(Nc1cnn(Cc2ccc(Cl)cc2Cl)c1)c1cc(-c2cccs2)on1,4.5,0.6,11%,?,-3%,1%,-3%
CCCCNC(=O)C1(C)CCN1Cc1ccc(C#N)cc1 (centres undefined),.,-4.5,-4.5%,-0.7%,.,.,.
Cc1csc(=Nc2c(C)n(C)n(-c3ccccc3)c2=O)n1Cc1ccccc1,3.2,0.3&-0.5,0.5%&-2.7%,-0.6%&1.7%,2%,-3%[15.4 µM],-11%&-3%
COc1ccc(CN2CCN(S(=O)(=O)c3ccc(NC(C)=O)cc3)CC2)cc1OC,-0.1,-2.4,-0.1%,.,?,-26%,-10%
c1ccc2c(c1)ccc1ncccc12,-1.3,-0.6,4.2%,-2.0%,3%,13%,8%
COc1cc(OC)cc(OC(=O)C2CCN(C3=NS(=O)(=O)c4ccccc43)CC2)c1,.,-3.0,0.2%,1.5%,.,-1%,-20%
COc1ccc(C(=O)N2CCN(S(=O)(=O)c3cc(Cl)ccc3OC)CC2)cc1,2.1,-3.0,3.4%,-1.9%,-8%,10%,-6%
Cc1ccccc1-n1nc2c(c1NC(=O)c1ccco1)CS(=O)(=O)C2,-0.2,1.7,1.2%,-0.7%,1%,-33%[inhibitor],2%
CCCCNC(=S)Nc1ccccc1Cc1ccccc1,-2.8,-3.9,-4.0%,-0.2%,4%,-4%[15.4 µM],-3%
COC(=O)[C@@H](NCc1cccc(CN[C@H](C(=O)OC)c2ccccc2)c1)c1ccccc1,-5.3,-1.8,2.2%,0.7%,8%,.,0%
O=C(OCC(=O)N1N=C(c2ccc(Cl)cc2)CC1c1ccco1)c1ccco1 (centres undefined),0.8,-4.3,.,-0.1%,-1%,0%,-12%
CCOc1ccccc1C1CC(=O)Nc2c1c(=O)n(C)c(=O)n2C (centres undefined),1.8,-2.8,-4.1%,0.1%,-4%,-21%,-2%
O=C(NC(=S)NCCN1CCOCC1)c1cccc(Cl)c1,2.0,-1.6,0.4%,1.9%[38.3 µM],14%,13%,5%
CCN(CC)CCn1c2ccccc2c2nc3ccccc3nc21,-5.4,-4.4,0.1%,-1.3%,2%,-17%,-3%
O=C(CN(C1CCCCC1)S(=O)(=O)c1ccc(F)cc1)NCc1ccncc1,1.7,-2.8,15%,-0.1%,10%,-51%[inhibitor],11%
O=C(C1CCCN(S(=O)(=O)Cc2ccccc2)C1)N1CCC(Cc2ccccc2)CC1 (centres undefined),2.4,-3.5,0.6%,6.8%[38.3 µM],-5%,22%,-18%
O=C1CCC(=O)N1c1ccc(S(=O)(=O)Nc2cccc(Br)c2)cc1,.,-5.6,.,0.3%,7%,-5%[15.4 µM],0%
COc1cccc(CN(C(=O)c2cccs2)C2CCS(=O)(=O)C2)c1 (centres undefined),0.3,-4.7,.,-1.1%,11%,27%,-8%
COc1ccc(NC(=O)C2CC(=O)N(c3ccccc3F)C2)cc1S(=O)(=O)N1CCCCC1 (centres undefined),.,-2.3,0.8%,-0.6%,.,-2%,.
O=C(/C=C/c1ccco1)NC1=NCCS1,1.6,0.0,-23%,-0.5%,0%,4%[15.4 µM],5%
COc1ccc(N(CC(=O)N2CCOCC2)S(=O)(=O)c2ccccc2)cc1Cl,.,-2.3,-0.3%,0.2%,11%,?,1%
CCOC(=O)Nc1cccc(Nc2ccccc2)c1,1.6,0.9,-5.7%,0.5%,17%,1%,-14%
CCOC(=O)C1CCN(S(=O)(=O)c2ccc(NC(=O)OC)cc2)CC1,-1.5,-2.9,-3.5%,-0.7%,8%,-9%,0%
O=C(CCC(=O)N1CCN(C(=O)c2ccco2)CC1)c1ccc(F)cc1,2.9,-0.9,.,1.9%,23%,2%[15.4 µM],.
CS(=O)(=O)Nc1cccc(-c2nc(-n3ccnc3)c3ccccc3n2)c1,-0.4,.,.,-0.8%,15%,.,.
CCOC1=C2CN(S(=O)(=O)c3ccc(C)cc3)[C@H](c3ccccc3)C[C@@H]2N(S(=O)(=O)c2ccc(Br)cc2)[C@H](c2ccccc2)C1,.,-6.7,-5.7%,-1.1%,.,.,.
O=C(Cn1c(NCCO)nc2ccccc21)c1ccc([N+](=O)[O-])cc1,5.4,14,-1.2%,0.8%,3%,-64%[inhibitor],6%
COc1ccc([C@H]2CC(=O)C=C(c3cccc(Br)c3)C2)cc1OC,.,2.6,-2.2%,-0.5%,.,6%,-29%
CC(C)C(NC(=O)c1ccc(Cl)cc1)C(=O)NCC1CCCO1 (centres undefined),-0.4,1.6,.,4.0%,5%,11%,8%
CC(=O)Nc1c(I)c(NC(C)=O)c(I)c(C(=O)O)c1I,-2.5&-3.2,-5.1&-3.4,1.5%&1.4%,0.1%&0.6%,19%&1%,.,5%&-2%
C/C(=N\N=C1\NC(=O)CC(C(=O)O)S1)c1ccc(F)cc1 (centres undefined),7.7,-3.5,-1.0%,0.8%,-10%,-34%[inhibitor],8%
CCOC(=S)SCC(=O)Nc1nc(-c2ccc(Br)cc2)cs1,4.4,2.1,-8.8%,-1.4%,29%,-13%,16%
Cc1sc2c(c1C)C(=O)/C(=C\Nc1ccncc1)S(=O)(=O)N2C,8.1,5.0,.,-0.8%,-15%,-1%,-19%
CS(=O)(=O)c1ccc(Sc2nc3ccccc3s2)c([N+](=O)[O-])c1,-0.5,12,-1.8%,-2.5%,-5%,0%,7%
CC(CN1CCN(C)CC1)OC(=O)c1ccccc1Cl (centres undefined),-0.3,-2.4,2.6%,0.1%,-8%,-20%,-3%
CCCCN(C(=O)c1cc(Cl)nc2ccccc12)c1c(N)n(Cc2ccccc2)c(=O)[nH]c1=O,.,-3.0,2.1%,4.7%,.,-19%,11%
CS(=O)(=O)N1CCN(C2CCN(Cc3ccccc3)CC2)CC1,-0.2,-1.9,0.4%,1.0%,23%,-46%[inhibitor],14%
C=CCC[C@@H](Cc1ccc(F)cc1)C(=O)OCCNC(=O)[C@@H](CC=C)CC(=O)N[C@@H](CO)Cc1ccccc1,.,0.2,-0.6%,1.2%,.,.,5%
COc1ccc(CCNC(=O)Cn2c(=O)n(-c3ccc(C)c(F)c3)c(=O)c3sccc32)cc1OC,1.3,8.7,.,1.1%,-8%,-9%[15.4 µM],-23%
C=C(C)CSc1nnc([C@@H]2CCCN2)o1,1.0,-5.0,1.0%,1.8%,?,10%[15.4 µM],14%
Cc1cc2nn(-c3ccc(F)cc3)nc2cc1N,-0.6,5.6,.,0.4%,?,-24%,0%
CC(C)=CCN1CCN(Cc2cccc3c2OCO3)CC1CCO (centres undefined),-0.8,-3.9,.,1.2%,11%,-3%[15.4 µM],19%
CCOC(=O)Cc1nnc(NC(=O)C(CC)Sc2nncn2C)s1 (centres undefined),1.2,-6.7,-4.1%,-0.2%,6%,15%,3%
COc1ccc(/C=N/NC(=O)Nc2cccc3nsnc23)cc1,-16,-0.9,1.6%,7.2%,6%,5%[15.4 µM],11%
CCOc1ccc(S(=O)(=O)Nc2ccc(C(=O)NCC(c3ccccc3)N(C)C)cc2)cc1 (centres undefined),-3.8,-1.7,-3.0%,-3.6%,-7%,6%,-2%
CCCCNc1c([N+](=O)[O-])cc(C(=O)O)cc1[N+](=O)[O-],.,0.2,-1.4%,1.8%,11%,10%,1%
Nc1ncnc2c1nc(-c1ccccc1)n2C1OC(CO)C(O)C1O (centres undefined),.,13,5.2%,-0.1%,.,.,.
O=C(O)[C@H](Cc1ccccc1)NC(=O)N1CCOCC1,2.7,-1.1,0.9%,-1.8%,9%,-38%[inhibitor],6%
COc1ccc(NC(=O)c2cc(S(=O)(=O)N3CCCCC3)c[nH]2)cc1,-0.6,-0.3,10%,5.8%,-1%,-1%,4%
Nc1cc(=O)[nH]c(=O)n1CCCc1ccccc1,.,-2.4,.,-0.5%,.,25%,5%
COc1ccc(C(CCN2CCCC2)c2c(OC)cc(OC)c3c(-c4ccccc4)cc(=O)oc23)cc1 (centres undefined),9.4&12,-0.6,-2.7%,1.7%,-22%&-26%,.,9%
CCN(CC)CC(=O)Nc1scc2c1c(=O)oc1ccccc12,-1.5,-1.3,0.3%,9.4%,-7%,7%[15.4 µM],2%
Cc1ccccc1NC(=O)C1CCCN(C(=O)NCc2ccccc2)C1 (centres undefined),-3.7,-1.5,.,-3.1%,-1%,-12%[15.4 µM],10%
Cc1nn(C)c(Cl)c1C(=O)NC(C(=O)O)c1ccccc1 (centres undefined),1.4,1.4,.,-0.6%,9%,13%,4%
CCOC(=O)c1nc(Nc2ccc(Nc3ccccc3)cc2)c2ccccc2n1,2.4,11,0.3%,-1.3%,9%,-15%,?
CSc1ccccc1C(=O)OCC(=O)Nc1c(C)n(C)n(-c2ccccc2)c1=O,.,-2.5,-1.2%,1.2%,.,-24%,.
COc1ccccc1NC(=O)COC(=O)c1ccc2c(c1)nc(C)n2-c1ccccc1,2.1,-2.2,0.9%,0.1%,-6%,-16%[15.4 µM],3%

# Screening results from PubChem BioAssay.
